AID504770 – growth inhibition of E. coli YBA685, primary screen, V. cholerae RctB inhibitors. E. coli YBA685 rctB-dependent plasmid, OD600 growth, 3 h; active compounds read low. z-score (concentration not given with the values). hit rate 0.27% among 130,000;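 active = z-score under -2 on both plates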;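 also: wells of about 30 µL received 100 nL stock; score is relative to mean and SD of the test wells; the first replicate is given; strong numbers were not always called active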
Ba CapD inh – Bacillus anthracis CapD inhibitors, primary screen, biochemical, fluorescence intensity; hit rate 0.23% among 140,000; purified CapD enzyme, fluorescence intensity read-out; active compounds read low; some hits fall short of the stated cut; z-score (concentration not given with the values); AID 492967, 2010;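 active = z-score under -4 in either of two replicates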;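 also: stock transfer was 100 nL into about 40 µL; score is relative to mean and spread of the plate; one replicate is shown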
Numbers without * were called inactive; / = not tested or not shown.

Each structure is followed by: AID504770, Ba CapD inh
NC(=S)NC(=O)/C=C/c1ccccc1
 : -1.9, -0.43
CC(C)n1nnc(CC(=O)NN)n1
 : -0.3, 0.09
N#CC(C#N)=C1N=NNN1c1ccccc1
 : -0.85, -0.36
CC1CCN(Cc2cc(O)c(CN3CCC(C)CC3)cc2O)CC1
 : /, 0.42
CCOc1ccc(C2=NN3C(C2)c2cc(Cl)ccc2OC3c2ccc(SC)cc2)cc1 (stereo not given)
 : /, -0.35
COc1ccc(-c2nnc(Nc3ccc(Cl)cc3)c3ccccc23)cc1
 : 0.35, 0.12
CC1Nc2c(c(=O)oc3ccccc23)NC1=O (stereo not given)
 : -1, 44
O=C(Oc1cc(Cl)cc(Cl)c1)C12CC3CC(CC(C3)C1)C2
 : 0.1, 0.41
CC(C)(C)C1=NN(c2nc3ccc(Cl)cc3s2)C(=O)C1
 : 1.4, 0.48
CSc1nc2ccccc2c(=O)n1C1CCOC(C)(C)C1 (stereo not given)
 : 1.6, 0.13
CCc1ccc2nc(NC(=O)CCn3[nH]c(=O)ccc3=O)sc2c1
 : 0.2, /
O=C(NCCSCc1ccco1)Nc1ccc(Cl)cc1
 : /, -0.17
Nc1ccc(-c2nnc(-c3ccco3)o2)cc1
 : -0.1, 77
O=C(Nc1cc2ccccc2s1)Nc1ccc(F)cc1F
 : 1.7, -2
COc1ccc2ccccc2c1CN1CCN(C(=O)OCc2cccc(C)c2)CC1
 : /, 0.94
CC1CC(C)CN(C(=O)Cn2c3ccccc3c3cn[nH]c(=O)c32)C1 (stereo not given)
 : -0.2, 10
CC(=O)N(c1ccccc1)c1nc(CSc2nnnn2C)cs1
 : -0.3, /
CC(=O)Nc1ccccc1N1CCOCC1
 : -0.5, -0.24
O=C(CCn1c(=O)c2cccn2c2ccc(F)cc21)NC1CCCCC1
 : 0.55, 2
CC(=C1C(=O)c2ccccc2C1=O)N1CCC(C(N)=O)(N2CCCCC2)CC1
 : -0.2, -3

In another format: entries from further up
SMILES,AID504770,Ba CapD inh
CC(=C1C(=O)c2ccccc2C1=O)N1CCC(C(N)=O)(N2CCCCC2)CC1,-0.2,-3
CC(=O)Nc1ccccc1N1CCOCC1,-0.5,-0.24
O=C(Nc1cc2ccccc2s1)Nc1ccc(F)cc1F,1.7,-2
O=C(NCCSCc1ccco1)Nc1ccc(Cl)cc1,/,-0.17

Later entries.
Each structure is followed by: AID504770, Ba CapD inh
CC(=O)Nc1cc(C(=O)O)ccc1S(=O)(=O)c1ccc(C)cc1
 : -0.7, 1.5
CCC(=O)Nc1nnc(-c2ccco2)o1
 : -0.25, /
CCc1nnc(NC(=O)CCC(=O)N2CC3(C)CC2CC(C)(C)C3)s1 (stereo not given)
 : 1.9, /
CN1C(=O)C2(C(C#N)=C(N)Oc3[nH]c(=O)[nH]c(=O)c32)c2ccccc21 (stereo not given)
 : /, -0.19
O=C(O)CSc1nc(SCc2ccccc2)nc2ccccc12
 : /, 20
O=C1CC2(CCCCC2)Oc2ccc(OCC(=O)N3CCOCC3)cc21
 : -0.05, 13
CCc1cccc(N2C(=O)CCC2(C)C(=O)NC2CCCC2)c1 (stereo not given)
 : -0.15, 0.31
CCc1ccc(-n2nnnc2-c2cn[nH]c2-c2ccccc2)cc1
 : -0.15, -0.3
CCCc1nn2c(=O)cc(COc3ccc(/C=C(\C#N)C(=O)NCc4ccco4)cc3)nc2s1
 : -0.45, -2.3
N#CC(C#N)=Cc1cc(Br)cs1
 : 1.6, /
CCOC(=O)C1=CN(c2cc(C)cc(C)c2)C=C(C(=O)OCC)C1c1cc(OC)c(OC)c(OC)c1
 : /, 12
CCOc1ccc(NC(=O)c2nn(-c3ccccc3OC)c(=O)c3ccccc23)cc1
 : 1.9, -1.5
CCC1CN2CCc3cc(OC)c(OC)cc3[C@@H]2C[C@@H]1C[C@H]1NCCc2cc(OC)c(OC)cc21 (stereo not given in full)
 : -0.4, 0.2
CCCCNC(=O)c1ccc(CS(=O)(=O)c2cccc(C(F)(F)F)c2)o1
 : -1.6, 0.56
CC(C)Nc1nc(N2CCCC2)nc(N2CCCC2)n1
 : 1.4, -0.82
Cc1cccc(C(=O)N2CCCc3ccccc32)c1
 : 1.5, -0.62
Cn1cc(S(=O)(=O)CC(=O)Nc2ccccc2)c2ccccc21
 : -0.45, -0.81
COc1ccc(CCNC(=O)c2sc3nc(C)nc(N4CCN(c5ccccn5)CC4)c3c2C)cc1OC
 : /, 0.12
CCNC(=O)/N=C1\NC(=O)C(C(C)C)O1 (stereo not given)
 : -0.45, /
CC1=CC(C)C2(COC(=O)NC3CCCCC3)COC3(CCCC3)C1C2C (stereo not given)
 : -0.35, -0.095
COC(=O)C1=CN(C(C)C)C=C(C(=O)OC)C1c1cccs1
 : 0.55, 94
Nc1nc(N)nc(-c2ccccc2)n1
 : -1.2, 0.1
O=C(CC(CC(=O)C1CC1)c1ccc(Br)cc1)NCc1ccc(Cl)cc1 (stereo not given)
 : /, 0.49
CCOc1cc(/C=C2\C(=O)NC(=O)N(c3ccc(Br)cc3)C2=O)ccc1OCC(=O)O
 : /, 0.28
COCCn1c(COc2ccc(Cl)cc2)nnc1SCC(=O)OC
 : -0.4, /
CCOC(=O)Cc1sc(NC(C)=O)nc1-c1ccccc1
 : -0.7, /
COc1ccccc1OCCOc1c(Br)cc(C=C2C(=O)NC(=S)NC2=O)cc1OC
 : /, -0.51
N#CCCNCCN1CCOCC1
 : -0.8, /
N#CC(C#N)=C(N=C(c1ccccc1)c1ccccc1)C(F)(F)F
 : 0.05, 0.56
CCOC(=O)C1=C(C(=O)OCC)SC(=C2C(=S)C(C)(C)N(C(=O)CC)c3cc(OCC)ccc32)S1
 : /, -0.26
COC(=O)C1=C(C)OC(N)=C(C#N)C1C1CCCCC1 (stereo not given)
 : /, 0.32
COc1ccc(-n2c(SCC(=O)Nc3ccc(Br)cc3)nc3n[nH]c(C)c3c2=N)cc1
 : /, 7
O=C(C1CC1)N1CCc2cc(Br)cc(S(=O)(=O)NCc3cccs3)c21
 : 0.45, -0.07
Cc1ccc(CN2CCc3[nH]c(=S)[nH]c(=O)c3C2)cc1
 : 1.8, -1.1
CCN1CCCC1CNC(=O)c1ccc2c(c1)sc1nc(-c3cccc(OC)c3)cn12 (stereo not given)
 : 0.1, 18
CCOc1cccc(-n2c(O)c(/C=C3/C(=O)N(c4ccccc4)N=C3C)c(=O)[nH]c2=S)c1
 : /, -0.7
COC(=O)c1c(NC(=O)CN2CCN(c3ccccc3O)CC2)sc2c1CCC2
 : 0.9, /
CC(NC(=O)c1cc(-c2ccc(Cl)cc2)n[nH]1)c1ccc2c(c1)OCCO2 (stereo not given)
 : 0.05, 0.015
CC(C(=O)O)n1cnc2scc(-c3ccc(Cl)cc3)c2c1=O (stereo not given)
 : 0.15, 0.51
N#C/C(=C\c1ccco1)c1ccc(Cl)cc1
 : 1.1, -2.4
CC1(C)CC2CC(C)(CN2C(=O)c2cc(-c3ccccc3)on2)C1 (stereo not given)
 : 1.9, /
CC1CCCN(S(=O)(=O)c2ccc(/C(O)=C(\C#N)c3nc4ccccc4n3C)cc2)C1 (stereo not given)
 : -0.65, /
Cc1nc(Cc2nnc(SCC(=O)N3c4ccccc4NC(=O)C3(C)C)o2)cs1
 : 0.6, /
CCCN(Cc1nnc(-c2ccco2)o1)C(=O)/C=C/c1nc2ccccc2s1
 : -0.45, /
FC(F)(F)c1cccc(OCc2n[nH]c(=S)n2-c2ccccc2)c1
 : /, 3.2
O=C(CSc1cccc[n+]1[O-])Nc1ccccc1C(F)(F)F
 : -0.05, 0.94
CCC1CCCCN1CC(C)(C)NS(=O)(=O)c1ccccc1 (stereo not given)
 : 0.6, 0.11
CC(C)N1CCCc2cc(CN)ccc21
 : 0.3, 2.4
CCN(CC)P(=NC(=S)N1CCCC1)(c1ccccc1)N(CC)CC
 : 0.05, /
N#Cc1ccc(-c2ccc(Cl)c(Cl)c2)n(Cc2ccc(Cl)cc2)c1=O
 : /, 4.9

Further records
Each structure is followed by: AID504770, Ba CapD inh
COc1nc(-c2cccs2)cc(-c2cccc([N+](=O)[O-])c2)c1C#N
 : /, 1.2
Cc1ccc(S(=O)(=O)CCSc2sc(C#N)c3c2C(=O)CC(C)(C)C3)cc1
 : 0.6, 0.3
O=C(NCC(c1ccco1)N1CCCC1)c1ccc(Cl)cc1 (stereo not given)
 : 0.1, 0.26
CC(=O)Nc1ccc(C2=N/C(=C/c3cc(Br)cs3)C(=O)O2)cc1
 : -0.85, 0.36
Cc1c(-c2ccc(C#N)cc2)oc2ccccc2c1=O
 : 0.5, /
CCCCc1ccc(CC(=O)O)cc1
 : -0.55, 0.66
COc1ccc(-c2nnc(N3CCCCC3)c3ccccc23)cc1
 : /, -0.47
Cc1onc(-c2ccccc2)c1C(=O)NC(C)C
 : -0.7, /
Cc1sc(-c2ccccc2)nc1CC(=O)NNC(=O)/C=C/c1ccco1
 : /, 0.18
COC(=O)C1=C(C)N(c2ccc(C(C)C)cc2)C(=O)/C1=C\c1ccco1
 : 0.4, 1.1
CC1Cc2ccccc2N1C(=O)C1CCN(S(=O)(=O)c2ccc(-n3cnnn3)cc2)CC1 (stereo not given)
 : 0.3, /
CN1C(=O)C(=Cc2cc(Br)ccc2OCc2ccccc2)C(=O)N(C)C1=O
 : /, 0.55
CC1(C)Cc2nc3nc(SCC(=O)c4ccccc4)n(-c4ccccc4)c(=O)c3cc2CO1
 : /, 1.1
CSC1=NCCN1C(=O)C(C)(C)Oc1ccc(Cl)cc1
 : -1.2, /
CCOC(=O)C1=C(CSc2nc(C)cc(C)c2C#N)OC(N)=C(C#N)C1c1ccccc1I (stereo not given)
 : /, 0.12
C=C(C)Cc1c(COC)nc(SCC2CC2)[nH]c1=O
 : -0.7, 0.6
COC(=O)N1CCc2cc(OC)c(OC)cc2C1c1ccc(OC)c(OC)c1 (stereo not given)
 : -1.4, -0.04
Cc1c(C(=O)N2CCN(c3ccccn3)CC2)sc2ncn(CC(=O)Nc3cccc(C(F)(F)F)c3)c(=O)c12
 : /, -0.63
O=C(Nc1nc2c(Cl)cccc2s1)c1ccc2ncsc2c1
 : -1.2, /
CC(=O)Nc1ccc(NC(=O)C(C)OC(=O)c2cc(C)oc2C)cc1 (stereo not given)
 : -0.3, /
CCOc1ccsc1C(=O)NNC(=O)OCc1ccc(C#CC(C)(C)O)cc1
 : /, -0.32
Cc1cc(C2C(C#N)=C(N)N(c3cccc([N+](=O)[O-])c3)C3=C2C(=O)CC(C)(C)C3)c(C)s1 (stereo not given)
 : /, 0.16
Clc1cccc(N2CCN(C3=Cc4ccccc4C3)CC2)c1
 : 0.3, 0.9
CCOC(=O)c1sc(=S)n(-c2ccccc2Br)c1N
 : /, -1.1
NC(Cc1ccccc1)c1ccccc1 (stereo not given)
 : -0.15, /
CC(=O)Nc1cccc2c1Cc1ccccc1-2
 : -1.1, -0.05
Fc1cccc(-c2nnc3ccc4cc(C(F)(F)F)ccc4n23)c1
 : /, 4.9
COC(=O)c1cccc(Oc2ncnc3sc(C)c(C)c23)c1
 : 0.3, -0.21
COc1ccc(OC)c(/C=c2\sc3nc4cc(Br)cnc4n3c2=O)c1
 : /, -0.28
O=C1c2ccccc2O[C@@H](c2ccc(Cl)cc2)[C@@H]1O
 : -0.2, 1.8

Rewritten with each value named: part of the list above.
COC(=O)c1cccc(Oc2ncnc3sc(C)c(C)c23)c1
  AID504770 = 0.3 | Ba CapD inh = -0.21
O=C1c2ccccc2O[C@@H](c2ccc(Cl)cc2)[C@@H]1O
  AID504770 = -0.2 | Ba CapD inh = 1.8
Cc1cc(C2C(C#N)=C(N)N(c3cccc([N+](=O)[O-])c3)C3=C2C(=O)CC(C)(C)C3)c(C)s1 (stereo not given)
  AID504770 = / | Ba CapD inh = 0.16

Record cards, as listed above. Order of screens: AID504770 | Ba CapD inh
COc1ccc(OC)c(/C=c2\sc3nc4cc(Br)cnc4n3c2=O)c1 is listed as / | -0.28
COC(=O)c1cccc(Oc2ncnc3sc(C)c(C)c23)c1 is listed as 0.3 | -0.21

(further entries)
Each structure is followed by: AID504770, Ba CapD inh
O=C(Cc1ccccc1)NCCOc1ncc(C(F)(F)F)cc1Cl
 : /, -0.27
NNC(=O)c1cccc(S(=O)(=O)Nc2cccc(C(F)(F)F)c2)c1
 : -0.1, /
C=CCOc1ccc(C2/C(=C(\O)c3ccc(OC)cc3)C(=O)C(=O)N2CCN2CCNCC2)cc1 (stereo not given)
 : -0.25, -0.33
O=C(NC1CCCCC1)c1noc2c1CCc1ccccc1-2
 : -0.55, -0.3
COc1ccc(N2C(=O)/C(=C\c3ccc(Br)cc3)C(=O)NC2=S)cc1
 : /, -1.7
CCOC(=O)N1CCC(c2[nH][nH]c(=O)c2C)CC1
 : -2.4, -0.12
O=c1c2cnn(-c3cccc(Cl)c3)c2ncn1CC1CCCO1 (stereo not given)
 : 1.7, /
CC(Oc1cccc2c1OC(C)(C)C2)C(=O)N(C)c1ccccc1 (stereo not given)
 : 0.25, /
CC(=O)N1CCc2cc(C(O)CN(C)Cc3ccccc3)ccc21 (stereo not given)
 : -0.7, -0.24
O=C(OCn1nnc2ccccc2c1=O)C(c1ccccc1)c1ccccc1
 : 0.5, 0.34
COc1ccc(C2/C(=C(\O)c3ccc(C)cc3)C(=O)C(=O)N2CCCN2CCOCC2)cc1 (stereo not given)
 : /, -0.35
CC(C)S(=O)(=O)c1cscc1N1C(=O)c2ccccc2C1=O
 : -0.2, 0.51
O=C1CS/C(=N\c2nccs2)N1
 : -2.8*, -1.5
CCN(CC)C(=S)Oc1ccc(C#N)cc1
 : -0.65, 0.34
COc1ccc(NC(=O)CN(c2ccc(C)cc2)S(=O)(=O)c2ccc(OC)cc2)cc1
 : 0.2, 71
CC(C(=O)Nc1ccc2c(c1)OCO2)N1CCN(S(=O)(=O)/C=C/c2ccccc2)CC1 (stereo not given)
 : -0.55, /
CCCCn1c(CNC(=O)c2cccs2)nnc1SC(C)C(=O)Nc1sc2c(c1C(=O)OCC)CCC2 (stereo not given)
 : /, -0.71
